# ID4 SMM = binders of human ID4 protein; P47928; small molecule microarray, Flag-ID4 binding, fluorescence F/B; calls only; actives 1.2% (n = 31,000); AID 624137;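 active = spot signal over background at p below 0.07 in all four prints; compounds were printed on slides so no solution concentration is given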;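 also: a binder raises fluorescence above local background on the spot; about 2 pmol printed per array spot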
# Target sequence (P47928 whole entry, looked up): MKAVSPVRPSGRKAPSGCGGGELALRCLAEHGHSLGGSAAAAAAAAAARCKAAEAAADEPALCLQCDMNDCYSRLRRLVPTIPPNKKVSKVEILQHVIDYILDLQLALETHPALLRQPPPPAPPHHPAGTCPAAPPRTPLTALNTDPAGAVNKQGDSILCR
# Calls only; i = inactive; + = active, no number. Some of the compounds tested (hit frequency here may not be typical).
SMILES,ID4 SMM
O=C(Nc1sc2c(c1C(=O)NCc1cccnc1)CCCCC2)c1ccccc1,+
COc1ccc(-c2ccc3c(c2)O[C@H](CN(C)C)[C@H](C)CN([C@@H](C)CO)S3(=O)=O)cc1,i
Cc1ccc(S(=O)(=O)N(C)C[C@H]2Oc3ncc(-c4ccncc4)cc3C(=O)N([C@H](C)CO)C[C@H]2C)cc1,i
COc1ccccc1NC(=O)CNC(=O)c1ccc([N+](=O)[O-])cc1,i
COCC(=O)N(C)C[C@H]1Oc2cc(C3=CCCC3)ccc2S(=O)(=O)N([C@@H](C)CO)C[C@H]1C,i
CCOC(=O)c1ccc(NC(=O)CN2c3cccc4cccc(c34)S2(=O)=O)cc1,i
O=C(C[C@@H]1CC[C@@H](NC(=O)c2cnccn2)[C@@H](CO)O1)NCc1ccccc1F,i
Cc1nnc(SCC(=O)Nc2cc(Cl)cc(Cl)c2)n1-c1ccccc1,i
CCCC#Cc1cnc2c(c1)C(=O)N([C@H](C)CO)C[C@@H](C)[C@H](CN(C)C(=O)C1CCCCC1)O2,i
O=C(C[C@H]1C[C@H]2c3cc(NC(=O)Nc4ccc(C(F)(F)F)cc4)ccc3O[C@H]2[C@@H](CO)O1)NCc1ccc(Cl)cc1,i
C[C@@H]1CN([C@@H](C)CO)C(=O)c2cc(/C=C/c3ccccc3)cnc2O[C@H]1CN(C)C(=O)c1ccccc1,i
COc1ccccc1CNC(=O)C[C@@H]1C[C@H]2c3cc(NC(=O)c4cccnc4)ccc3O[C@H]2[C@H](CO)O1,i
CCOC(=O)CSc1ncnc2c1sc1nc3c(cc12)COC(C)(C)C3,i
COc1ccc(OCC(=O)Nc2cccc(-c3nnc4c5ccccc5c(C)nn34)c2)cc1,i
COc1ccc(C2NC(=S)NC(C)=C2C(=O)Nc2cc(OC)c(Cl)cc2OC)c(OC)c1 (configuration not stated),i
C[C@@H]1CN([C@H](C)CO)C(=O)c2cc(C#Cc3ccccn3)cnc2O[C@@H]1CN(C)Cc1ccccc1,i
O=C(c1cccs1)n1nc(-c2ccc(Cl)cc2)nc1NCc1ccco1,i
O=C(CSc1nnc(-c2ccc(Cl)cc2)o1)c1cccc([N+](=O)[O-])c1,i
O=C(C[C@H]1C=C[C@H](NC(=O)C2CCOCC2)[C@H](CO)O1)NCCc1cscn1,i
CCn1c(SCC(=O)c2cccc([N+](=O)[O-])c2)nnc1-c1ccccc1F,i
COc1ccc(NC(=O)C2CCCN(S(=O)(=O)c3ccc(C)cc3)C2)cc1OC (configuration not stated),i
COc1ccccc1NC(=O)c1ccc(OCC(=O)Nc2cc(Cl)cc(Cl)c2)cc1,i
Cc1ccc(-c2csc3nnc(SCC(=O)c4ccc(Cl)c(Cl)c4)n23)cc1,i
COC(=O)Cc1cc(=O)n(-c2nc3ccccc3s2)[nH]1,i
C[C@H]1CN([C@@H](C)CO)C(=O)c2cc(/C=C/c3ccccc3)cnc2O[C@H]1CN(C)C(=O)c1ccccc1,i
O=C(NCCCNc1ccc(C(F)(F)F)cc1[N+](=O)[O-])c1ccc(F)cc1,i
CN1CCN(C(=O)C[C@H]2CC[C@@H](NC(=O)Nc3ccccc3F)[C@H](CO)O2)CC1,i
COc1cccc(NC(=O)CCc2nc(-c3ccc(OC)c(OC)c3)no2)c1,i
COc1cc(NC(=O)COc2ccc(I)cc2)c(C(=O)O)cc1OC,i
COc1ccc(S(=O)(=O)N(C)CC(=O)Nc2ccc3c(c2)OCCO3)cc1C,i
CCOC(=O)c1cnc2c(C(F)(F)F)cccc2c1NCCCN1CCOCC1,i
CCC(=O)N[C@H]1C=C[C@H](CC(=O)NCc2ccccc2F)O[C@H]1CO,i
Cc1ccc(S(=O)(=O)NC2c3cccc4cccc(c34)C2Sc2n[nH]c(N)n2)cc1 (configuration not stated),i
Cc1ccc(-c2cc(C(F)(F)F)n3nc(C(=O)NCc4cc(C)n(C)n4)cc3n2)cc1C,i
Cc1ccc(NC(=O)COc2ccc3cc(-c4ccc(Cl)cc4)c(=O)oc3c2)cc1,i
C[C@@H]1CN([C@H](C)CO)S(=O)(=O)c2ccc(C3=CCCCC3)cc2O[C@H]1CN(C)S(=O)(=O)c1ccc(F)cc1,i
O=C(c1ccco1)n1nc(-c2ccccc2)nc1NCc1ccco1,i
O=C(C[C@@H]1CC[C@@H](NC(=O)CC2CC2)[C@H](CO)O1)NCc1ccc(-c2ccccc2)cc1,i
CC(C)C#Cc1cnc2c(c1)C(=O)N([C@H](C)CO)C[C@H](C)[C@@H](CN(C)Cc1cccc(F)c1)O2,i
Cc1ccc(NC(=O)COc2ccc(C(=O)Nc3ccc(Cl)cc3)cc2)cc1,i
CS(=O)(=O)N(CC(=O)Nc1ccc(Br)c(Cl)c1)c1cccc([N+](=O)[O-])c1,i
COc1ccc(Cl)c(Cn2c(NCC3CCCO3)nc3c2c(=O)n(C)c(=O)n3C)c1 (configuration not stated),i
COc1ccc(NC(=O)c2ccccc2OCC(=O)Nc2ccccc2C(F)(F)F)c(C)c1,i
C/C=C/c1cnc2c(c1)C(=O)N([C@H](C)CO)C[C@@H](C)[C@@H](CN(C)CC1CCOCC1)O2,i
CN(C)CCNc1nc2c(c(=O)n(C)c(=O)n2C)n1Cc1c(F)cccc1Cl,i
COc1ccccc1NC(=O)CSC1CC(=O)N(c2ccc(F)cc2)C1=O (configuration not stated),i
O=S(=O)(c1ccc(Cl)cc1)N1CCN(C(=S)NCc2ccco2)CC1,i
C[C@@H]1CN([C@@H](C)CO)C(=O)c2ccccc2-c2ccccc2CO[C@@H]1CN(C)Cc1cccc(F)c1,i
COc1cc([N+](=O)[O-])ccc1NC(=S)NCc1ccco1,i
O=C(Nc1sc2c(c1C(=O)NCc1ccco1)CCCC2)c1ccccc1[N+](=O)[O-],i
# The list goes on:
SMILES,ID4 SMM
C[C@@H]1CN([C@H](C)CO)S(=O)(=O)c2ccc(-c3ccc(F)cc3)cc2O[C@@H]1CN(C)CC1CC1,i
O=C(C[C@@H]1CC[C@H](NS(=O)(=O)c2ccccc2)[C@H](CO)O1)NCc1ccncn1,i
CCCN(C)C[C@H]1OCc2cn(nn2)CCCC(=O)N([C@@H](C)CO)C[C@H]1C,i
Cc1ccc(NC(=O)COc2ccccc2)c(NC(=O)c2cccs2)c1,i
Cc1cccc(OCC(=O)Nc2cccc(-c3nnc(-c4ccccc4)o3)c2)c1,i
COCC#Cc1cnc2c(c1)C(=O)N([C@H](C)CO)C[C@@H](C)[C@H](CN(C)Cc1ccccc1F)O2,i
COc1ccc(S(=O)(=O)N(C)CC(=O)Nc2ccc(Br)cc2F)cc1OC,i
COc1ccc(S(=O)(=O)N(C)CC(=O)Nc2ccc(Br)cc2F)cc1,i
CC(C)NC(=O)N(C)C[C@@H]1Oc2c(cccc2N(C)C)C(=O)N([C@H](C)CO)C[C@@H]1C,i
COc1ccc(C)cc1NC(=O)C1CCCN(S(=O)(=O)c2ccc(C)cc2)C1 (configuration not stated),i

# Arranged by molecular weight (smallest number first): 17 of the compounds above.
SMILES,ID4 SMM
COC(=O)Cc1cc(=O)n(-c2nc3ccccc3s2)[nH]1,i
Cc1ccc(NC(=O)COc2ccccc2)c(NC(=O)c2cccs2)c1,i
COc1cccc(NC(=O)CCc2nc(-c3ccc(OC)c(OC)c3)no2)c1,i
Cc1ccc(NC(=O)COc2ccc(C(=O)Nc3ccc(Cl)cc3)cc2)cc1,i
O=C(Nc1sc2c(c1C(=O)NCc1cccnc1)CCCCC2)c1ccccc1,+
CN1CCN(C(=O)C[C@H]2CC[C@@H](NC(=O)Nc3ccccc3F)[C@H](CO)O2)CC1,i
CN(C)CCNc1nc2c(c(=O)n(C)c(=O)n2C)n1Cc1c(F)cccc1Cl,i
CCOC(=O)c1ccc(NC(=O)CN2c3cccc4cccc(c34)S2(=O)=O)cc1,i
O=C(C[C@@H]1CC[C@H](NS(=O)(=O)c2ccccc2)[C@H](CO)O1)NCc1ccncn1,i
COc1ccc(NC(=O)c2ccccc2OCC(=O)Nc2ccccc2C(F)(F)F)c(C)c1,i
CC(C)C#Cc1cnc2c(c1)C(=O)N([C@H](C)CO)C[C@H](C)[C@@H](CN(C)Cc1cccc(F)c1)O2,i
CCCC#Cc1cnc2c(c1)C(=O)N([C@H](C)CO)C[C@@H](C)[C@H](CN(C)C(=O)C1CCCCC1)O2,i
C[C@@H]1CN([C@H](C)CO)S(=O)(=O)c2ccc(-c3ccc(F)cc3)cc2O[C@@H]1CN(C)CC1CC1,i
COc1ccc(C2NC(=S)NC(C)=C2C(=O)Nc2cc(OC)c(Cl)cc2OC)c(OC)c1 (configuration not stated),i
C[C@@H]1CN([C@@H](C)CO)C(=O)c2cc(/C=C/c3ccccc3)cnc2O[C@H]1CN(C)C(=O)c1ccccc1,i
Cc1ccc(S(=O)(=O)N(C)C[C@H]2Oc3ncc(-c4ccncc4)cc3C(=O)N([C@H](C)CO)C[C@H]2C)cc1,i
C[C@@H]1CN([C@H](C)CO)S(=O)(=O)c2ccc(C3=CCCCC3)cc2O[C@H]1CN(C)S(=O)(=O)c1ccc(F)cc1,i

# (further entries)
SMILES,ID4 SMM
CC(C)C#Cc1cnc2c(c1)C(=O)N([C@@H](C)CO)C[C@@H](C)[C@H](CN(C)Cc1ccccc1F)O2,i
CN(C)C(=O)C[C@@H]1CC[C@@H](NC(=O)c2ccc(F)cc2)[C@H](CO)O1,i
NC(=O)CSc1nnc(-c2ccncc2)n1-c1ccc(Br)cc1,i
CC(C)c1cn(CC[C@@H]2CC[C@H](NC(=O)C3CC3)[C@H](CO)O2)nn1,i
C[C@@H]1CN([C@@H](C)CO)C(=O)c2cc(-c3cccc(F)c3)cnc2O[C@@H]1CN(C)Cc1ccncc1,i
C[C@@H]1CN([C@H](C)CO)S(=O)(=O)c2ccc(C#Cc3ccccc3)cc2O[C@H]1CN(C)C,i
CC(C)CC#Cc1cnc2c(c1)C(=O)N([C@H](C)CO)C[C@H](C)[C@@H](CN(C)C(=O)Cc1ccccc1)O2,i
CCc1ccc(NC(=O)CSc2ncnc3sc4c(c23)CCC(C)C4)cc1 (configuration not stated),i
CCNc1nc(NCc2ccccc2)nc(Oc2ccc(=O)[nH]n2)n1,i
O=C(CSc1nc(-c2ccccc2)cc(C(F)(F)F)n1)Nc1ccc2c(c1)CCC2,i
Cc1ccc(-c2ccc3c(c2)O[C@H](CN(C)S(C)(=O)=O)[C@H](C)CN([C@H](C)CO)S3(=O)=O)cc1,i
CC(=O)N[C@@H]1CC[C@@H](CC(=O)NCC2CCCCC2)O[C@@H]1CO,i
O=C(C[C@@H]1C=C[C@@H](NC(=O)C2CCC2)[C@@H](CO)O1)NC1CCC1,i
Cc1cc(Cl)ccc1NC(=O)CSc1nnc(-c2ccc(Br)cc2)n1C,i
O=[N+]([O-])c1ccc(NCCNCc2cccnc2)cc1,i
Cc1c(CNC(=O)c2cnn3c2NC(c2ccc(Br)cc2)CC3C(F)(F)F)cnn1C (configuration not stated),i
C[C@H](CO)N1C[C@H](C)[C@H](CN(C)C(=O)c2ccccc2)Oc2ncc(C#CC3CC3)cc2C1=O,i
Cc1cc(N2CCOCC2)c2c(N)cc(C)c(C)c2n1,i
Cc1ccc(C)c(-n2nnnc2SCC(=O)Nc2ccccc2[N+](=O)[O-])c1,i
N#Cc1c(NC(=O)C2CC(Cl)=CCC2C(=O)O)sc2c1CCC2 (configuration not stated),+
C=C[C@@]1(C)CCC2=C([C@H]1OC(C)=O)[C@H](OC(C)=O)CC1[C@](C)(C(=O)OC)CC[C@H](OC(C)=O)[C@]21C (some centres not stated),i
C[C@@H]1CN([C@H](C)CO)C(=O)c2c(c3ccccc3n2C)-c2ccccc2CO[C@@H]1CN(C)C(=O)CCC(F)(F)F,i
C[C@H]1CN([C@@H](C)CO)C(=O)c2cc(-c3cccc(F)c3)cnc2O[C@@H]1CN(C)C(=O)C1CCCCC1,i
C[C@H](CO)N1C[C@H](C)[C@H](CN(C)C(=O)C2CCCCC2)Oc2ncc(-c3ccccc3F)cc2C1=O,i
Cc1nc(SCC(=O)c2cccc([N+](=O)[O-])c2)nc2c1CCCC2,i
COCC(=O)N[C@@H]1CC[C@H](CC(=O)NCc2ccccc2OC)O[C@@H]1CO,i
CCC(=O)N(C)C[C@H]1Oc2ncc(-c3ccc(C)cc3)cc2C(=O)N([C@@H](C)CO)C[C@@H]1C,i
Cc1ccc2nc(-c3ccc(NC(=O)C(C)Oc4ccc5c(C)cc(=O)oc5c4)cc3)sc2c1 (configuration not stated),i
COc1ccc(N(C(C)C(=O)Nc2cccc(Br)c2)S(C)(=O)=O)cc1 (configuration not stated),i
CCOC(=O)c1c(NC(=O)CN2C(=O)c3ccccc3C2=O)sc(C)c1-c1ccccc1,i
CCCNC(=O)N1[C@H](CO)[C@H](c2ccc(-c3ccccc3F)cc2)[C@@H]1C#N,i
C[C@H]1CN([C@@H](C)CO)C(=O)c2cc(C#Cc3ccc(F)cc3)cnc2O[C@@H]1CN(C)C,i
O=C(C[C@@H]1C=C[C@@H](NC(=O)Nc2cccc(F)c2)[C@@H](CO)O1)NCC1CCCCC1,i
COC(=O)c1c(NC(=O)c2ccccc2N(C)S(=O)(=O)c2ccccc2)sc2c1CCCC2,i
CS(=O)(=O)N(CC(=O)Nc1cccc([N+](=O)[O-])c1)c1cccc(F)c1,i
C[C@H](CO)N1C[C@H](C)[C@H](CN(C)C)Oc2cc(C#CCN(C)C)ccc2S1(=O)=O,i
C=C(C)C(=O)O[C@@H]1C2=C(C)C(=O)OC2(O)CC23OC2CC[C@H](C)[C@@]13C (some centres not stated),i
Cc1ccc(C(C)C)c(OCC(=O)Nc2sc3c(c2C(N)=O)CCC(C)C3)c1 (configuration not stated),i
COc1cc(/C=c2\sc3nc4cc(C)c(C)cc4n3c2=O)c(Br)cc1OCC(=O)O,i
CC(C)(C)c1cc(C(=O)Cn2c(NCCO)nc3ccccc32)cc(C(C)(C)C)c1O,i
Cc1ccc(Cl)cc1NC(=O)CC1NCCNC1=O (configuration not stated),i
C[C@H](NC(=O)C[C@H]1CC[C@H](NC(=O)CN2CCOCC2)[C@H](CO)O1)c1ccccc1,i
Cc1cc(=O)oc2c(O)c(O)ccc12,i
Cc1cccc(-n2c(SCC(=O)N3CCOCC3)nnc2-c2ccccc2)c1,i
O=C(NCc1ccco1)c1cc(-c2cccnc2)nc2ccc(Cl)cc12,i
COc1ccc(S(=O)(=O)N2CCN(c3nc4ccccc4nc3-n3nc(C)cc3C)CC2)cc1,i
Cc1ncsc1CCSc1nc2ccccc2c(=O)n1C,i
CC(C)=CCCC1(C)C=Cc2c(ccc3c2[nH]c2cc(O)c(C)cc23)O1 (configuration not stated),i

# Compound activity as filed in PubChem.
